Cruzain inh Det: qHTS Assay for Promiscuous and Specific Inhibitors of Cruzain (with detergent) | Cruzipain (Trypanosoma cruzi), P25779 | purified cruzain, Z-FR-AMC fluorescence, 0.01% Triton | Potency, µM, inactives show max response, negative = inhibition, actives largely listed as inhibitors | 0.43% of 200,000 active | AID 1478, 2009;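 further: plate controls were neutral wells for no effect and buffer without enzyme for full effect; nearly all actives have a fitted effect of over 40% in size; top concentration of the series not given in the record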
Target sequence (P25779 123-467 limits assumed): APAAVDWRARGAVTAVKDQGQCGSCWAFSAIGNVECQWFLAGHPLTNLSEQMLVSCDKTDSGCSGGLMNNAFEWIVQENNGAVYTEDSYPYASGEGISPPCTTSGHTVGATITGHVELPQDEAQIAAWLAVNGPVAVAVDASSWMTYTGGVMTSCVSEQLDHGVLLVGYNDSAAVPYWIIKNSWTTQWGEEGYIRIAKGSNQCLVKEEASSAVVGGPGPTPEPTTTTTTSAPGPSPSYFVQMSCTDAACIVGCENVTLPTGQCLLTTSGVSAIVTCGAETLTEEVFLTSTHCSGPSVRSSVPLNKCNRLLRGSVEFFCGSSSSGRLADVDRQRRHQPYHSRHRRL
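Read-out: AMC fluorescence (360 nm excitation, 450 nm emission), four reads over 2 min, first-to-third difference used. Conditions: cruzain 1.5 nM, Z-FR-AMC 2 uM, pH 5.5 acetate, 5 mM DTT, 0.01% Triton X-100.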
2A StopGo: High Throughput Screening for Foot and Mouth Disease Virus Antivirals; Potency, µM (series often up to 57.9 µM), without a hit: at the highest dose signal change, negative = less light; 1.2% of 410,000 active; human cells with a luciferase reporter of 2A StopGo recoding; control for the full effect not named in the record; active = well fitted falling curve with a large enough effect; inconclusive = small, poorly fitted or top-dose-only effect; inactive = no such curve, though single readings can be large or run the other way; tested in HEK293T cells; further: on the % scale 0 is the no-effect control and ±100 the full control effect; nearly all actives have a fitted effect of over 45% in size; luciferase light after 4 h
Cruzain noTriton: qHTS Assay for Promiscuous and Specific Inhibitors of Cruzain (without detergent). Cruzipain (Trypanosoma cruzi), P25779. purified cruzain, Z-FR-AMC fluorescence, no detergent. Potency, µM, for inactives: max response, negative = inhibition, most hits filed as inhibitors. 2.3% of 200,000 active;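 further: plate controls were enzyme without inhibitor for no effect and buffer without enzyme for full effect; nearly all actives have a fitted effect of over 40% in size; top concentration of the series not given in the record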
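Purified cruzain at 1.5 nM, pre-incubated 15 min with compound at room temperature in 100 mM sodium acetate pH 5.5, 5 mM DTT, 0.00005% Triton X-100. Reaction started with 2 uM Z-FR-AMC; AMC fluorescence increase over 60 s gives rate.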
SARS PLP yeast: qHTS of Yeast-based Assay for SARS-CoV PLP | 0.19% of 330,000 active | Potency, µM (titrated, usually from 32.9 µM), for inactives: at the top dose activity, positive = growth rescue | S. cerevisiae expressing SARS-CoV PLpro, growth rescue; control for the full effect not named in the record; active means well fitted rising curve with a large enough effect; inconclusive means small, poorly fitted or top-dose-only effect; inactive means no such curve, though single readings can be large or run the other way; further: 0% is about no effect; nearly all actives have a fitted effect of over 55% in size; growth read by luminescence after 48 h
NS1 function inh: qHTS Assay for Inhibitors of Influenza NS1 Protein Function | 0.4% of 270,000 active | AID 2326, 2010 | S. cerevisiae slowed by influenza A NS1, growth recovery by OD600 | Potency, µM (doses to about 46.1 µM), for inactives: at the top dose activity, positive = more growth; active means well fitted rising curve with a large enough effect; inconclusive means small, poorly fitted or top-dose-only effect; inactive means no such curve, though single readings can be large or run the other way; further: nearly all actives have a fitted effect of over 50% in size
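Read-out: OD600 growth recovery of NS1-expressing budding yeast. Cells grown overnight at 30C in -URA glucose medium, washed, resuspended and diluted 1:100 in 2% galactose assay medium, pH 6.0. Same strain lacking NS1 served as positive control.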
Marburg entry inh: qHTS for inhibitors of binding or entry into cells for Marburg Virus; Marburg virus pseudotyped entry inhibition, cell reporter; control for the full effect not named in the record; about a third of the inactives were read at about 46 µM; Potency, µM (doses to about 37.8 µM), inactives show at the highest dose activity change, negative = inhibition, most hits filed as inhibitors; 1.8% of 300,000 active; AID 540276, 2011; active = well fitted inhibition curve with a large enough effect; inconclusive = small, poorly fitted or top-dose-only effect, or effect the other way; inactive = flat fitted curve, though single readings scatter; tested in HEK293 cells; about a fifth of its hits are not listed in these tables; further: on the % scale 0 is the no-effect control and ±100 the full control effect; luciferase read-out
Lassa entry inh: qHTS for Inhibitors of binding or entry into cells for Lassa Virus; Lassa virus pseudotype entry inhibition, cell reporter; control for the full effect not named in the record; Potency, µM (doses to about 37.9 µM), for inactives: top-dose activity change, negative = inhibition, actives largely listed as inhibitors; 1.2% of 300,000 active; AID 540256, 2011; active means well fitted inhibition curve with a large enough effect; inconclusive means small, poorly fitted or top-dose-only effect, or effect the other way; inactive means flat fitted curve, though single readings scatter; tested in HEK293 cells; further: on the % scale 0 is the no-effect control and ±100 the full control effect; nearly all actives have a fitted effect of over 50% in size; luciferase read-out
RE007 growth inh: qHTS Assay for Inhibitors of the HIV-1 protein Vpr; S. pombe RE007 Vpr strain, BacTiter-Glo ATP luminescence, 24 h; control for the full effect not named in the record; Potency, µM (titrated, usually from 92.2 µM), for inactives: top-dose activity change, negative = less growth; 0.21% of 360,000 active; AID 651644, 2012; active = well fitted falling curve with a large enough effect; inconclusive = small, poorly fitted or top-dose-only effect; inactive = no such curve, though single readings can be large or run the other way;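 further: on the % scale 0 is the no-effect control and ±100 the full control effect; nearly all actives have a fitted effect of over 50% in size; the assay follows cell death caused by Vpr and the record does not say whether a fall means rescue or toxicity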
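Fission yeast strain RE007, carrying one chromosomally integrated HIV-1 vpr copy, was seeded at OD 0.01 in PMG+AL medium with 23 nL pinned compound. After 24 h at 30 °C and 99% humidity, viability was read by BacTiter-Glo luminescence.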
Active calls of the source: *; ? = inconclusive; nt = no result given; & = joins results of further samples; [ ] = dose if it differs, or a comment. Unless noted, the call rests on the fitted dose curve; in most records, active means well fitted curve in the direction sought with a large enough effect; inconclusive means small, poorly fitted or top-dose-only effect, or another doubt; inactive means no such curve, though single readings can be large; an effect the other way counts as inactive or inconclusive. Potency means the concentration at half of the fitted maximal effect.

nr	compound	Cruzain inh Det	2A StopGo	Cruzain noTriton	SARS PLP yeast	NS1 function inh	Marburg entry inh	Lassa entry inh	RE007 growth inh
1	Cc1ccc(NS(=O)(=O)c2ccc3nc(-c4ccccc4)[nH]c3c2)cc1Cl	3.1%	52.1%[activator]	26.5%	nt	nt	15.7%[46.1 µM]	?	nt
2	O=S(=O)(c1ccc(C2CCCCC2)cc1)N1CCN(c2cc(Cl)ccc2Cl)CC1	0.4%	-25.5%	-8.3%	nt	nt	3.1%[46.1 µM]	-3.1%[46.1 µM]	nt
3	COC(=O)C1=C(C)NC(=O)/C1=C\c1ccc2c(c1)OCO2	-0.6%	-2.9%	1.6%	-4.2%	-5.9%	0.1%	15.9%	?
4	CC(=O)N(c1nnc(-c2ccc(C)cc2)s1)C1CCCC1	nt	28.0%	nt	26.5%	21.6%	?	-22.3%[46.1 µM]	-18.7%
5	O=C(Nc1ccc(Oc2ccc(NC(=O)Nc3ccc([N+](=O)[O-])cc3)cc2)cc1)Nc1ccc([N+](=O)[O-])cc1	nt	?	nt	-5.4%	4.7%	-6.4%[46.1 µM]	-24.5%	2.6%
6	Cc1n[nH]c(C)c1N1C(=O)c2cccc3c(Br)ccc(c23)C1=O	-10.5%	-2.5%	16.7%	-8.0%	7.0%	-18.3%	?	10.1%
7	CCOc1ccc2[nH]c3nc(SCC(=O)NC4CCCC4)nnc3c2c1	nt	0.6%	nt	-3.4%	14.0%	?	nt	5.5%
8	COc1ccc(C2C(C(=O)Nc3ccccc3)=C(C)Nc3nc(CCCO)nn32)cc1 (stereo not given)	5.1%	9.7%	2.6%	0.4%	0.6%	?	18.4%	-2.1%
9	CCCNc1nc2c(c(=O)[nH]c(=O)n2C)n1CCOc1ccccc1	nt	-27.6%	nt	-0.4%	2.5%	16.1%[46.1 µM]	-20.7%[46.1 µM]	-5.3%
10	CCCCCn1nc(C)c(/C=N\NC(=O)c2cc(C)oc2C)c1C	-2.5%	10.9%	3.4%	-9.6%	-2.2%	1.7%	-6.0%	-6.3%
11	CN(C)c1ncnc2c1ncn2-c1ccccc1	nt	8.2%	nt	nt	nt	-5.9%	5.3%	-18.4%
12	C/C(=N\NC(=O)CSc1nc2ccccc2s1)c1ccco1	-9.2%	-16.3%	-0.4%	6.3%	-9.7%	?	?	1.4%
13	Fc1cccc(Cl)c1CNC(c1ccccc1)c1ccccc1	7.4%	nt	-3.6%	-29.5%	5.8%	?	-4.2%	-4.6%
14	CCOCCn1c(N2CCN(c3ccccc3)CC2)nc2c1c(=O)n(C)c(=O)n2C	3.8%	?	15.9%	-0.1%	-31.5%	-0.6%&-0.6%	?	-4.4%
15	O=C1CN(C(=O)COC(=O)CNC(=O)c2ccc(Cl)cc2)c2ccccc2N1	nt	-19.9%	nt	1.6%	0.9%	7.9%[46.1 µM]	19.2%	2.5%
16	O=C(NC(=S)Nc1ccc(-c2nc3ncccc3o2)cc1)c1ccccc1F	nt	-7.6%	nt	0.7%	3.1%	?	0.0%	-5.5%
17	CCOC(=O)C1=C(C)N(C)C(=S)NC1c1cccc(Cl)c1Cl (stereo not given)	nt	-11.6%	nt	-0.3%	-3.0%	nt	nt	6.5%
18	COCCNC(=S)N/N=C(\C)c1cccc([N+](=O)[O-])c1	-16.4%	-4.1%	-11.3%	21.2%	15.9%	2.0%	-9.7%	-1.0%
19	Cc1ccc(/C=N/NC(=O)c2nnn(-c3nonc3N)c2CN(C)C2CCCCC2)cc1	nt	-11.4%	nt	-2.4%	9.1%	nt	nt	-0.6%
20	COc1ccc(NC2CCCN(C(=O)c3ccc(OC)cc3OC)C2)cc1 (stereo not given)	nt	11.0%	nt	8.6%	-4.2%	nt	nt	26.0%
21	Cc1cc2nc(C)n(CCCNC(=O)Nc3ccc(F)cc3)c2cc1C	1.4%	0.0%	6.0%	4.7%	-3.4%	?	?	-3.8%
22	O=C(/C=C/c1cccc([N+](=O)[O-])c1)NCCN1C(=O)S/C(=C\c2ccc(F)cc2)C1=O	-6.1%	-8.7%	?	3.5%	15.3%	-1.5%	6.1%	12.7%
23	Cc1cccc(NC(=O)CSc2nnc3ccc(-c4ccccn4)nn23)c1	nt	-3.9%	nt	-0.2%	nt	19.4%[46.1 µM]	3.1%	9.8%
24	O=C(Nc1ccc(N2C(=O)c3cccc4cccc(c34)C2=O)cc1)c1ccc(N2CCCCC2)c([N+](=O)[O-])c1	-1.6%	-22.7%	7.94µM*	-19.0%	11.6%	-4.3%	1.6%	9.0%
25	Cc1ccccc1NC(=O)C(=O)NCCc1ccccc1	1.2%	8.1%	-1.5%	6.3%	7.4%	18.2%	?	-3.2%
26	Cn1cc(Br)c(C(=O)NNC(=O)c2ccccc2)n1	-1.3%	14.8%	5.5%	-25.5%	5.6%	?	?	7.8%
27	COc1cccc(N2CCN(c3ccc(S(=O)(=O)N4CCCC4)cc3)CC2)c1	0.0%	-0.3%	-20.5%	4.4%	0.6%	-0.4%	nt	-1.4%
28	CC1CN=C(NC(=O)c2cccc([N+](=O)[O-])c2)S1 (stereo not given)	nt	-1.1%	nt	11.5%	?	nt	nt	0.0%
29	O=S(=O)(CCN1CCOCC1)c1ccc(Cl)cc1	nt	-19.4%	nt	nt	nt	-25.1%	-17.3%	6.8%
30	Cc1cc2c(cc(C(=O)OC(C(=O)NCC3CCCO3)C(C)C)n2C)o1 (stereo not given)	nt	?	nt	0.1%	7.8%	-18.9%	-34.3%	5.9%
31	CC(C)COC(=O)Nc1nnc(SCc2ccccc2F)s1	3.7%	35.9%[activator]	0.6%	-6.0%	-10.7%	?	?	2.8%
32	O=[N+]([O-])c1ccc(Nc2c3ccccc3nc3ccccc23)cc1	nt	-23.2%	nt	-37.3%	nt	?	-26.2%	2.5%
33	CCCCn1c(=O)[nH]c2ccccc21	0.9%	-4.1%	3.3%	-5.3%	-0.8%	nt	nt	0.3%
34	COc1cccc2cc(C(=O)Nc3cccc(C)n3)c(=O)oc12	2.8%	-51.5%	-2.7%	-0.4%	-2.5%	?	?	0.2%
35	CCOC(=O)c1cc(C)sc1NC(=O)CCC(=O)O	-0.7%	-7.9%	-13.7%	-5.6%	-1.2%	0.1%	-5.2%	-10.3%
36	COc1ccccc1CNC(=O)CSc1nc2nc(C)c(Cc3ccccc3Cl)c(C)n2n1	-6.1%	0.0%	-11.0%	nt	nt	8.7%[46.1 µM]	-6.4%[46.1 µM]	nt
37	O=C(NC1(Cc2ccc(O)cc2)CCCCC1)c1ccccc1	nt	-10.2%	nt	-8.8%	-1.4%	-17.2%[46.1 µM]	-27.8%[46.1 µM]	18.1%
38	COc1ccc(C(=O)Nc2c(Cl)cc(Cl)cc2C(=O)NCc2ccco2)cc1	4.5%	13.0%	?	-15.4%	2.4%	7.0%	-0.5%	?
39	COc1ccccc1OCCNC(=O)c1cc(F)c(F)cc1Cl	-10.0%	10.4%	-7.6%	9.5%	16.7%	4.7%	-1.7%	-4.1%
40	O=C(CSc1n[nH]c(-c2ccncc2)n1)Nc1ccccc1	nt	-12.7%	nt	0.6%	-24.6%	-1.1%[46.1 µM]	13.1%[46.1 µM]	4.5%
41	CC(C1CC2CCC1C2)n1c(-c2cccs2)n[nH]c1=S (stereo not given)	nt	?	nt	-3.2%	-49.4%	?	?	3.9%
42	Cc1cccc(OCC(=O)N(Cc2cccc(Cl)c2)Cc2ccco2)c1C	-11.6%	-27.0%	-3.9%	nt	nt	?	-20.0%[46.1 µM]	nt
43	COc1cccc(C(=O)N(Cc2sccc2C)C2CCS(=O)(=O)C2)c1 (stereo not given)	-2.0%	-13.5%	-13.2%	nt	nt	-21.4%[46.1 µM]	4.4%[46.1 µM]	nt
44	CCOC(=O)NC(N(O)c1cccc(Cl)c1)C(Cl)(Cl)Cl (stereo not given)	nt	-15.3%	nt	-1.3%	-0.8%	-0.2%[46.1 µM]	5.9%[46.1 µM]	2.3%
45	CCn1nc(NS(=O)(=O)c2cccc3nonc23)c2cc3ccc(C)cc3nc21	nt	23.9%	nt	-1.6%	-33.6%	nt	nt	-12.4%
46	CN1CCN(C(=O)c2ccccc2NC(=O)c2cccs2)CC1	1.3%	-4.1%	-0.4%	2.9%	2.2%	?	2.1%	15.8%
47	CSC(=NC#N)N1CCN(c2c(C)cccc2C)CC1	nt	?	nt	-0.3%	-6.7%	?	?	1.0%
48	COc1ccc(NC(=O)COc2ccc3c(c2)OCO3)cc1	nt	15.8%	nt	-0.6%	0.3%	9.9%[46.1 µM]	-10.1%[46.1 µM]	144.7%
49	S=c1nc(-c2ccccc2)n(CCN2CCOCC2)c2c1CCCC2	-2.0%	36.3%[activator]	-11.3%	4.3%	2.5%	?	?	5.8%
50	COC1C(CO)OC(n2c3c(Cl)cccc3c3c4c(c5c6cccc(Cl)c6[nH]c5c32)C(=O)NC4=O)C(O)C1O (stereo not given)	nt	-18.9%	nt	nt	nt	?	?	-12.0%

Assay outcomes: PubChem, National Center for Advancing Translational Sciences (NCATS)

Rows were taken by chance (roughly 4.6% active in at least one column).
